Bioassay records from PubChem BioAssay.
Sa ugtP lethal: kills S. aureus RN4220 lacking UgtP; 330,000 tested, 0.54% active; growth inhibition, % (test concentration not listed); S. aureus RN4220 ugtP deletion, OD600 growth, 16 h; some inactives read as strong as hits;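 active = z-score under -3 and OD600 up to 0.15 on both plates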;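 also: plate controls were untreated wells for no effect and antibiotic for full effect; wells of about 80 µL received 100 nL stock; the first replicate is given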
PrP 5UTR inh: suppresses PrP 5' UTR mRNA reporter expression; cell-based PrP 5' UTR mRNA reporter, plate reader; inhibition, % (test concentration not listed); 340,000 tested, 0.35% active; AID 488862;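 active = every replicate at 50% or more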;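 also: 0 = median of the neutral control wells; tested in H4 reporter cells; numbers are from one replicate; inactives centre near -14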
RN4220 kill: kills Staphylococcus aureus RN4220; S. aureus RN4220 growth, OD600, 16 h; inhibition, % (no concentration beside the values); 330,000 tested, 0.33% active;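 active = z-score of -3 or lower and OD600 up to 0.18 on both plates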;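 also: plate controls were untreated cells for no effect and reference antibiotic for full effect; stock transfer was 100 nL into about 80 µL; one replicate is shown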
Autofluor counter: counter-screen for toxin protease inhibitors: compound fluorescence; compound autofluorescence counterscreen, microsphere flow cytometry; stronger effect = higher value; fluorescence intensity (concentration not given with the values); 360,000 tested, 3.1% active; AID 624483;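 active = at least 3 SD above the mean of all compounds, about 16000 in these data; inconclusive = too few beads counted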;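 also: 100 nL of 1 mM stock went into each well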
BJeLR viability: kills HRASV12-expressing BJeLR cells; BJeLR (HRASV12) viability, CellTiter-Glo ATP luminescence, 48 h; reference of the scale not given here; inhibition, % (no concentration beside the values); 300,000 tested, 0.17% active; AID 1554;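 active = replicate mean above 50%; inconclusive = above 50% but judged a plate artefact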;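 also: 50 nL library stock added to about 25 µL; numbers are from one replicate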
Mtb hypoxia inh: Mtb hypoxia fluorescent reporter inhibition; M. tuberculosis hypoxia-regulated fluorescent reporter, fluorescence; fluorescence inhibition, % (concentration not given with the values); 300,000 tested, 0.1% active; AID 1159583;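 active = 35 to 45% if threefold the growth effect, above 45% if 1.5-fold the growth effect; inactive = the rest, general growth blockers included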;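 also: wells of about 50 µL received 100 nL stock; 0% = vehicle wells and 100% = reference inhibitor wells; whole bacteria with a GFP reporter of the hypoxia response; strong numbers were not always called active; many hits fall short of the cut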
Mtb hypoxia inh growth: further read-out of Mtb hypoxia inh, marked with its call; growth inhibition, %; measured here: M. tuberculosis growth (absorbance);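 0% = vehicle and 100% = reference antibiotic; read after six days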
Numbers without * were called inactive; ? = inconclusive; . = not tested or not shown; & = joins results of further samples; ! = repeats disagree.

Results follow in this order: Sa ugtP lethal	PrP 5UTR inh	RN4220 kill	Autofluor counter	BJeLR viability	Mtb hypoxia inh	Mtb hypoxia inh growth
> COC(=O)/C=C/c1cnc2ccccc2c1
  7	-35	11	3694	-1	12	8
> Cc1ccc(C(c2sc3ncnn3c2O)N2CCC(C)CC2)cc1 (centres undefined)
  8	-17	5.3	4907	9	6	3
> Cc1csc(NC(=O)COc2ccc3c(c2)CCC3)n1
  7	-102	4.2	4032	.	2	7
> CC1CN(C(C)CO)C(=O)c2cc(NC(=O)C3CC3)ccc2OC1CN(C)C(=O)NC1CCCCC1 (centres undefined)
  0&-4	.	0.7&0.2	.	.	1&-5	7&0
> Cc1ccc2nc3c(cc2c1)CC1(C(=O)N(C)C(=O)N(C)C1=O)C1COCCN31 (centres undefined)
  1	-25	4.8	7940	-3	5	9
> CCC(=O)Nc1nc2c(OC)ccc(C)c2s1
  -7	-5	-3.9	6737	0	7	12
> CCCC(C)C1(CC)C(=O)NC(=Nc2ccc(F)cc2)NC1=O (centres undefined)
  -2	-36	-2.2	2352	-2	.	.
> COC(=O)c1cn(NC(=O)c2ccc(OC)c(OC)c2)c(=O)c2ccccc12
  -3	-14	5.0	4583	-6	0	9
> COC(=O)c1ccc(CSc2nc(C)nc3sc(C)c(C)c23)o1
  -4	-16	4.1	22019*	-9	7	7
> CCC(C)(C)C1CCc2c(sc(NC(=O)c3cccs3)c2C(N)=O)C1 (centres undefined)
  -3	-33	-5.1	4033	-3	.	.
> CCOn1c(=O)c(=O)n(OCc2ccccc2)c2ccccc21
  -6	-17	0.8	4431	-2	.	.
> CC1=C(C(=O)OC(C)C)C(c2cccs2)N2C(=O)CCSC2=N1 (centres undefined)
  11	-2	3.3	25343*	-1	6	-4
> Cn1c(O)c(N=NC(=O)Cn2ccc(C(F)(F)F)n2)c2ccccc21
  -5	-14	-4.1	2472	5	-11	-4
> CC(=O)Nc1ccc(NC(=O)CSc2nnc(C)n2-c2ccccc2)cc1
  2	-13	3.1	.	9	-5	-1
> CCOc1cc(/C=C2/SC(=S)N(CC(=O)O)C2=O)ccc1OC(=O)c1cccs1
  2	-14	7.4	3694	3	-3	-6
> Cc1ccnc(NS(=O)(=O)c2ccc(NC(=O)c3ccc(Cl)cc3[N+](=O)[O-])cc2)n1
  1	-4	0.8	3224	6	15	4
> c1ccc(C2CNCCN2CCc2cccc3ccccc23)cc1 (centres undefined)
  -6	.	-10	.	.	11	14
> COc1cccc(-n2c(SCC(=O)N3c4ccccc4CC3C)nnc2-c2ccco2)c1 (centres undefined)
  -12	-6	-8.8	2973	.	-1	0
> CC(C)c1ccc(N2C(=O)CC(NNC(=O)c3cccnc3)C2=O)cc1 (centres undefined)
  -2	-19	4.4	4032	1	10	12
> O=C(NC1CCN(S(=O)(=O)c2ccc(F)cc2)CC1)c1cccnc1
  -6	-10	2.9	3929	-2	11	-1
> COc1ccc(NC(=O)Nc2ccc(Br)cn2)cc1
  4	-20	-0.5	2466	6	-2	12
> CC(=O)Oc1ccc2ccccc2c1C(NC(=O)C(C)C)c1cccc([N+](=O)[O-])c1 (centres undefined)
  4	-11	11	12450	-2	-5	2
> CN1CCN(C(=O)CCS(=O)(=O)c2cc3c(cc2Cl)NC(=O)CO3)CC1
  8	-4	1.5	4432	11	.	.
> CC1CC(C)CN(c2ccc([N+](=O)[O-])cc2-c2nn[nH]n2)C1 (centres undefined)
  10	-17	28	7784	-1	18	10
> C=CCn1c(SCC(=O)NCC2CCCO2)nnc1C1CCCCC1 (centres undefined)
  -2	-9	4.6	3989	-3	8	13
> COc1cc(C(=O)N2CCN(C(=O)c3cc(-c4ccc(Br)cc4)n[nH]3)CC2)cc(OC)c1OC
  -9	-8	6.0	5784	3	-6	-1
> O=C1CN(C(=O)c2cc3ccccc3oc2=O)C(c2ccc(F)cc2)c2cc(F)ccc2N1 (centres undefined)
  -5	3	-1.0	5504	1	-12	8
> O=C(COc1nncc2ccccc12)NCCC1=CCCCC1
  1	-13	4.7	3691	-13	4	8
> Cn1nc(C(=O)N2CCOCC2)c([N+](=O)[O-])c1C(=O)N1CCOCC1
  15	-22	4.8	2268	-3	0	7
> CC(=O)Nc1ccc(OC(=O)COc2ccc(Br)cc2)cc1
  -1	-24	7.7	2559	0	18	2
> Cn1c(SCC(=O)Nc2nnc(-c3ccccc3)o2)nnc1C1CC1
  4	-30	1.8	4244	-3	10	-4
> O=c1c2ccccc2nc2n1CCC2O (centres undefined)
  -3	5	1.7	5791	8	.	.
> CCC1Oc2ccc(C)cc2N(CC(=O)NCc2cccc(OC)c2)C1=O (centres undefined)
  3	8	4.5	17853*	-6	3	2
> COC(C)c1oc2c(C)c3oc(=O)cc(C)c3cc2c1C (centres undefined)
  1	-21	3.7	3169	4	-7	-3
> CC1Cn2c(nnc2-c2cccc(N)c2)S1 (centres undefined)
  -7	-26	-0.4	5871	6	.	.
> COc1cc(/C=C/C(=O)OCC(=O)Nc2ccc3c(c2)OCO3)ccc1O
  6	-23	4.0	3096	.	24	9
> COCCCn1cn[nH]c1=S
  7	-31	9.7	4107	-2	4	12
> CCOC(=O)C(CC)n1cnc2sc3c(c2c1=O)CCC3 (centres undefined)
  2	-16	5.5	.	-11	6	9
> Cc1ccc(CN2C(=O)/C(=C\c3ccc(C(=O)NCc4cccnc4)cc3)Oc3ccccc32)cc1
  -9	.	2.1	.	113*	5	2
> Cc1nc(C)c(CCNC(=O)c2cccc(Cl)c2)s1
  0	1	3.1	10938	10	9	12
> CC(Oc1ccc(Cl)cc1)C(=O)N1CCCc2ccccc21 (centres undefined)
  11	14	6.4	4686	1	15	7
> N#CCCN=C(NS(=O)(=O)c1ccccc1)c1ccccc1
  -2	-22	3.7	6114	-2	-3	5
> COc1ccc2nc(NC(=O)C3CCN(S(=O)(=O)c4cccnc4)CC3)sc2c1
  -5	1	6.5	4426	-5	-17	-6
> O=C(Nc1cccc2nsnc12)c1cccs1
  25&-7	-44&-21	4.8&15	21640*!	-10&2	14&8	9&15
> O=C(CSc1nnc(-c2ccc(Cl)cc2)n1CC1CCCO1)NC1CCS(=O)(=O)C1 (centres undefined)
  6	-23	4.0	3174	8	8	5
> O=C1NC[C@H](c2ccccc2)N(CC2CCCCC2)C1=O
  .	-18	.	3141	0	.	.
> O=C1CN(C(=O)c2ccc(Cl)c([N+](=O)[O-])c2)c2ccccc2N1
  4	-11	0.7	3053	-2	1	2
> CCOC(=O)C1CCN(S(=O)(=O)c2cn(C)c(=O)n(C)c2=O)CC1
  -4	-4	2.6	6764	20	1	8
> Cc1ccc(NC(=O)COC(=O)CCc2c(C)nc3ncnn3c2C)cc1C
  3	-17	3.6	4187	.	3	7
> COc1ccc(OC(=O)CCCN2C(=O)c3ccccc3C2=O)cc1
  5	-14	4.4	24000*	-11	1	5
> COc1cc(CNC(C)(C)CO)cc(Br)c1OCc1ccccc1
  4	-28	2.6	2507	5	11	4
> Cc1ccc(S(=O)(=O)NC2=NCCCCC2)cc1
  2	-9	5.1	2287	9	1	4
> CSc1ncc(Cl)c(C(=O)Nc2cccc(C)c2)n1
  -2	-8	1.7	2105	-4	5	6
> O=C(COc1ccc(Cl)cc1Cl)NCCCN1CCOCC1
  -1	-21	2.9	11477	-4	-4	11
> C=CCOc1nc2c(c(=O)n(C)c(=O)n2C)n1Cc1ccccc1
  2	-43	-0.9	6101	4	5	-3
> Cc1onc(-c2ccccc2)c1C(=O)OCC(=O)Nc1ccc2c(c1)OCO2
  -3	-10	-4.3	19429*	4	6	14
> CN(CCOC(=O)/C=C/c1ccccc1)C(C)(C)C
  12	-11	3.3	7790	-20	4	2
> CCN(CC)CCOCCOc1cc(C)c(Cl)c(C)c1
  11	-21	2.7	8239	7	12	6
> O=C1NC(c2ccc(F)cc2)Oc2ccccc21 (centres undefined)
  9	-23	5.5	4047	-2	7	10
> CN(C)/C=C(\C=O)c1ncc(C(F)(F)F)cc1Cl
  0	-22	2.5	4743	-4	5	9

Next part:
Results follow in this order: Sa ugtP lethal	PrP 5UTR inh	RN4220 kill	Autofluor counter	BJeLR viability	Mtb hypoxia inh	Mtb hypoxia inh growth
> Cc1ccc(C=NNC(=O)C2CN(S(=O)(=O)c3ccccc3)CCN2S(=O)(=O)c2ccccc2)cc1 (centres undefined)
  7	.	2.9	.	.	7	2
> O=C(c1ccc(F)cc1)C1CCN(C(=O)c2ccc(Cl)cc2)CC1
  -6	-36	-0.4	4149	.	0	9
> Cc1cc2c(ncn2Cc2ccccc2)c(N)c1C
  -3	-11	6.1	5166	5	5	19
> CCOC(=O)CCCn1ccc2cc(S(=O)(=O)N3CCCC3)ccc21
  2	-6	2.2	3391	-2	-6	6
> COCCN(C(=S)Nc1cccc(Cl)c1C)C(C)c1ccco1 (centres undefined)
  10	-17	4.8	6445	-3	11	6
> C=CCn1c(-c2ccccc2)nc(=S)c2c1CCCC2
  -8	-12	16	3894	-1	17	-2
> COc1cc(C(=O)Nc2nnc(S(=O)(=O)N3CCCCCC3)s2)cc(OC)c1OC
  -4	-8	3.7	5600	0	-7	4
> Cc1ccc(-c2cc(C(=O)N3CC(C)CC(C)C3)c3ccccc3n2)o1 (centres undefined)
  2	-3	2.1	3233	-1	12	4
> CCN1CC2C3C(=O)N(Cc4ccccc4)C(=O)C3[C@](CC)(C1=O)N2C(=O)c1ccccc1 (some centres undefined)
  -1	.	4.9	.	.	18	8
> COCCn1cnc2c1c(=O)n(Cc1cc(C(C)=O)ccc1OC)c(=O)n2Cc1ccccc1
  -1	-8	0.2	3613	-7	-1	-2
> Cc1ccc(N(C(=O)C2CCCC2)C2C=CS(=O)(=O)C2)cc1C (centres undefined)
  6	-11	3.0	5385	-9	10	5
> CC(=O)N1CCOc2ccc(S(=O)(=O)NCc3ccc(F)cc3)cc21
  -1	-5	4.0	6346	-12	9	5
> Cc1ccc2occ(/C=N/NC(=O)c3ccc(Cl)cc3)c(=O)c2c1
  .	-10	.	6479	9	.	.
> Cn1ccnc1P(=S)(c1nccn1C)N1CCOCC1
  5	-23	6.4	9975	18	4	9
> Cc1nc(NC(=S)NC(=O)COc2ccc(Cl)cc2)ccc1Br
  1	-8	-1.0	9662	-18	-2	6
> O=C(c1cccn2c(=O)c3ccccc3nc12)N1CCN(c2ccccn2)CC1
  -3	-56	5.5	23291*	-7	3	7
> O=C(OCC(=O)N1CCCc2ccccc21)c1cccc(S(=O)(=O)N2CCOCC2)c1
  4	-9	2.9	?	5	0	-7
> COc1ccc(N(CC(=O)NCCSCc2ccccc2C)S(=O)(=O)c2ccccc2)cc1
  -17	-18	-9.7	5276	1	-5	4
> CCN(CC)S(=O)(=O)c1ccc(N2CCOCC2)c(NC(=O)C2CCCC2)c1
  4	-16	3.2	2158	9	-2	4
> CC(C)(C)n1nnc(CCc2nnn(C(C)(C)C)n2)n1
  8	-14	6.7	3458	5	.	.
> COCCNS(=O)(=O)c1ccc(C2CNC(=O)C2)cc1 (centres undefined)
  6	-3	2.0	5261	-11	.	.
> CC1=C(C(=O)Nc2ccccc2)C(c2ccc(Cl)cc2)n2c(s/c(=C/c3cccc(OCC(=O)O)c3)c2=O)=N1 (centres undefined)
  .	-18	.	4437	2	.	.

As a working copy, five of the compounds above:
Results follow in this order: Sa ugtP lethal	PrP 5UTR inh	RN4220 kill	Autofluor counter	BJeLR viability	Mtb hypoxia inh	Mtb hypoxia inh growth
> Cc1nc(NC(=S)NC(=O)COc2ccc(Cl)cc2)ccc1Br
  1	-8	-1.0	9662	-18	-2	6
> O=C(c1cccn2c(=O)c3ccccc3nc12)N1CCN(c2ccccn2)CC1
  -3	-56	5.5	23291*	-7	3	7
> O=C(OCC(=O)N1CCCc2ccccc21)c1cccc(S(=O)(=O)N2CCOCC2)c1
  4	-9	2.9	?	5	0	-7
> COc1ccc(N(CC(=O)NCCSCc2ccccc2C)S(=O)(=O)c2ccccc2)cc1
  -17	-18	-9.7	5276	1	-5	4
> CCN(CC)S(=O)(=O)c1ccc(N2CCOCC2)c(NC(=O)C2CCCC2)c1
  4	-16	3.2	2158	9	-2	4
